T cruzi inh – blocks replication of Trypanosoma cruzi. hit rate 1.4% among 300,000. inhibition, % (concentration not given with the values). AID 1885. T. cruzi beta-gal in NIH3T3, luminescence, 90 h;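 active = mean inhibition across valid replicates above about 55%, limit read from the data; inconclusive = mean below that limit but half or more replicates reach it; inactive = mean below it, under half of replicates reach it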;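 also: signal also drops with host cell toxicity which is not excluded here; 0% = plate median of DMSO wells and 100% = zero luminescence signal; higher percent means less beta-gal luminescence so fewer parasites; stock transfer was 50 nL into about 50 µL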
Calb FLC – C. albicans growth modulation with fluconazole | growth inhibition, % (test concentration not listed) | C. albicans CaCi-2 (fluconazole-resistant clinical isolate) + fluconazole, Alamar Blue growth, 48 h | hit rate 0.57% among 300,000;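 active = most replicates above 75%; inconclusive = exactly half above 75%; inactive = most below 75%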;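 also: all wells also contain fluconazole at 8 µg/ml as a sub-toxic cotreatment; 0% = median of DMSO wells and 100% = median of geldanamycin control wells; wells of about 8 µL received 7.5 nL stock; the first replicate is given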
RanGTP-Impb inh – inhibitors of RanGTP-importin-beta interaction, primary screen, biochemical, FRET, CFP-Ran, YFP-importin-beta, homogeneous; cell-free CFP-Ran/YFP-importin-beta FRET ratio; inhibition, % (concentration not given with the values); AID 2216; hit rate 1.1% among 300,000;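 active = most replicates above 15%; inconclusive = exactly half above 15%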;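 also: 0% = DMSO wells and 100% = Ran loaded with GDP instead of GTP; wells of about 40 µL received 100 nL stock; the first replicate is given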
Beta cell apopt – beta cell apoptosis inhibition; INS-1E cytokine-induced death, ATP luminescence, 48 h; percent of positive-control rescue, neutral wells zero; hit rate 0.8% among 300,000; protection from apoptosis, % (no concentration beside the values);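 active = all replicates at 75% or more, or half of them and the mean; inconclusive = half reach 75% but not the mean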;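 also: 0% = cytokine-treated negative control wells and 100% = positive control rescue; higher means more ATP so stronger rescue from cytokine killing; wells of about 40 µL received 100 nL stock; the first replicate is given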
MLL AF4-AF9 inh – blocks AF4 peptide binding to human AF9. P42568. AlphaScreen, biotin-AF4 peptide binding to FLAG-AF9. inhibition, % at 10 µM. hit rate 0.47% among 350,000;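 active = every replicate reaching a set inhibition limit, whatever the replicate mean, cut at about 25% in these data; inconclusive = mean inhibition reaches that limit but some replicates miss it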;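 also: 0% = plate neutral control median and 100% = total signal loss; the record names both 10 and 1 µM as test concentration; the first replicate is given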
Target sequence (P42568 whole entry, looked up): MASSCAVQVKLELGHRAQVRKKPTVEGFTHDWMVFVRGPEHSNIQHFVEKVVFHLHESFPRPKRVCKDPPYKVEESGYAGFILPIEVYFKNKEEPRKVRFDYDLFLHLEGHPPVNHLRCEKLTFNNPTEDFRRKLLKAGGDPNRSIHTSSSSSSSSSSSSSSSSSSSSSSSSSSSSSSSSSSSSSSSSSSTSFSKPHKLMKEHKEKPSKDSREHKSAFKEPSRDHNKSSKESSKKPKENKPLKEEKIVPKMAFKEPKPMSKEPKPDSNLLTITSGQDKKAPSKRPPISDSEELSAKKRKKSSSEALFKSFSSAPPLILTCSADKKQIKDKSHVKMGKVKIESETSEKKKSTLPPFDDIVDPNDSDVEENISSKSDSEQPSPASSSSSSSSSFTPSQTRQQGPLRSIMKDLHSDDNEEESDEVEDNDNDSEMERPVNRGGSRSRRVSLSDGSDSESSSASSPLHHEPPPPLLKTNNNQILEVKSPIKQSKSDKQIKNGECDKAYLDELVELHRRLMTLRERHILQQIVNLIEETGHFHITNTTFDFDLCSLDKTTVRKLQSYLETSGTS
FGF22 binding – FGF22 (human) thermal shift binding. hit rate 1.5% among 340,000. Q9HCT0. AID 651658. recombinant FGF22 thermal shift, SYPRO orange fluorescence; percent of sucrose octasulfate shift, DMSO zero. calls only at 9.99 µM;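 active = melting point raised past a set limit in the mean and every replicate; inconclusive = no clear call; three in four hits are not shown here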
Target sequence (Q9HCT0 whole entry, looked up): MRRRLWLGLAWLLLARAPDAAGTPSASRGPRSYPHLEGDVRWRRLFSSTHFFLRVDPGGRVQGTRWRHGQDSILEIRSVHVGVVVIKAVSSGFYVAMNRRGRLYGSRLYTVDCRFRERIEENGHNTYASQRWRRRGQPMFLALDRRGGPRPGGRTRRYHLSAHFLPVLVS
ALR inh – human ALR oxidase inhibition via reduced H2O2; purified ALR, DTT oxidation, H2O2 HRP-luminol luminescence; inhibition, % (no concentration beside the values); hit rate 3.8% among 290,000; P55789; AID 485317;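 active = mean and each replicate at 75% or more; inconclusive = only one of the two met; inactive = neither met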;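 also: stock transfer was 7.5 nL into about 7.5 µL; 0% = neutral wells and 100% = wells with inactivated enzyme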
Target sequence (P55789 whole entry, looked up): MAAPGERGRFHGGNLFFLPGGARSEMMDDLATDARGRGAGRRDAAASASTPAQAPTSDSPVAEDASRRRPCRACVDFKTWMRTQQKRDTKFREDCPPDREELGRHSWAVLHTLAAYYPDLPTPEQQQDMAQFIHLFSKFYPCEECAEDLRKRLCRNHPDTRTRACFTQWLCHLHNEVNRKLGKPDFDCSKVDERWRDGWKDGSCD
rRNA inh HTS – inhibitors of bacterial rRNA selective over humanized ribosomes. hit rate 1.6% among 350,000. AID 720706. E. coli WT GFP vs humanized-ribosome RFP mutants, fluorescence, 24 h; active compounds read low; DMSO median 0, no signal -100. GFP signal change (wild-type ribosome), % (concentration not given with the values);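 active = significant combined selectivity score with lowered wild-type GFP, culture density cut under 30%, mutant RFP and density less affected; inactive = any of these conditions unmet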; also: one replicate is shown; some compounds called inactive have numbers as strong as hits
rRNA inh HTS OD600 – recorded beside rRNA inh HTS, whose call it bears; OD600 change, %; measured here: OD600 growth;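 optical density of the mix in the first replicate; 0 = DMSO median and -100 = no signal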
rRNA inh HTS RFP – further read-out of rRNA inh HTS, marked with its call; RFP signal change, %; measured here: RFP humanized mutant strains;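 first replicate; 0 = DMSO median and -100 = no signal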
Active calls of the source: *; i = inactive; u = inconclusive; x = not tested or not shown.

SMILES	T cruzi inh	Calb FLC	RanGTP-Impb inh	Beta cell apopt	MLL AF4-AF9 inh	FGF22 binding	ALR inh	rRNA inh HTS	rRNA inh HTS OD600	rRNA inh HTS RFP
COc1cc(C(=O)N2CCN(c3ccc(C)cc3C)CC2)cc(OC)c1OC	-37.2	2.7	-1.5	14.0	1.0	i	22.5	-7.1	-15.8	-1.8
COCCNC(=O)CC(NS(=O)(=O)c1ccc(NC(C)=O)cc1)C(C)C (stereo not drawn)	-1.8	-2.6	u	-1.3	x	x	-4.9	x	x	x
COCCN1CCC(CNCc2cn[nH]c2-c2ccc(C)c(C)c2)C1 (stereo not drawn)	-13.2	2.0	3.4	-11.0	17.3	i	-5.6	8.4	-2.3	18.0
Cc1ncc(CN2CCN(Cc3ccccc3)C(CCO)C2)s1 (stereo not drawn)	19.5	26.6	2.1	-6.0	-1.8	i	2.6	-2.9	1.9	-3.0
Cc1ccc(C)c(C(=O)NCc2ccncc2)c1	3.6	-12.5	-2.6	-3.7	x	x	-4.2	x	x	x
COCc1cc(C)n(CC(=O)Nc2ccc(N3CCOCC3)c(Cl)c2)c(=O)c1C#N	-9.1	4.4	-0.2	1.1	-1.8	i	-2.1	-0.5	5.5	-1.5
COc1ccc(-c2nnc(SCC(=O)N3c4ccccc4Sc4ccccc43)o2)cc1	42.2	-7.1	-2.5	4.4	x	x	-4.7	x	x	x
CC(=O)Nc1cccc(NC(=O)C(=O)NCC(c2ccco2)N2CCc3ccccc3C2)c1 (stereo not drawn)	11.5	1.7	-1.0	-4.5	4.3	i	2.0	-3.4	-22.6	1.7
C=CCn1c(=O)c2ccccc2n2c(SCC(N)=O)nnc12	-6.0	-3.7	7.2	-3.7	x	x	42.9	x	x	x
COc1ccc([N+](=O)[O-])cc1NC(=O)COC(=O)C1CC1	56.3*	-2.1	-1.5	5.2	-2.5	i	x	3.8	3.3	-0.7
Cc1ccc(NC(=S)N(CCCN2CCOCC2)Cc2ccco2)cc1C	x	-11.3	x	-18.8	-4.1	i	-2.3	0.7	1.9	-0.6
CCCC(=O)Nc1ccc(C(=O)NN=C(C2CC2)C2CC2)cc1	-4.4	-2.2	-3.1	-5.9	-2.5	i	u	8.2	4.2	-1.2

Five records picked at random from those above, as already listed:
SMILES	T cruzi inh	Calb FLC	RanGTP-Impb inh	Beta cell apopt	MLL AF4-AF9 inh	FGF22 binding	ALR inh	rRNA inh HTS	rRNA inh HTS OD600	rRNA inh HTS RFP
Cc1ncc(CN2CCN(Cc3ccccc3)C(CCO)C2)s1 (stereo not drawn)	19.5	26.6	2.1	-6.0	-1.8	i	2.6	-2.9	1.9	-3.0
C=CCn1c(=O)c2ccccc2n2c(SCC(N)=O)nnc12	-6.0	-3.7	7.2	-3.7	x	x	42.9	x	x	x
Cc1ccc(C)c(C(=O)NCc2ccncc2)c1	3.6	-12.5	-2.6	-3.7	x	x	-4.2	x	x	x
COc1ccc([N+](=O)[O-])cc1NC(=O)COC(=O)C1CC1	56.3*	-2.1	-1.5	5.2	-2.5	i	x	3.8	3.3	-0.7
CCCC(=O)Nc1ccc(C(=O)NN=C(C2CC2)C2CC2)cc1	-4.4	-2.2	-3.1	-5.9	-2.5	i	u	8.2	4.2	-1.2

Next structures.
SMILES	T cruzi inh	Calb FLC	RanGTP-Impb inh	Beta cell apopt	MLL AF4-AF9 inh	FGF22 binding	ALR inh	rRNA inh HTS	rRNA inh HTS OD600	rRNA inh HTS RFP
Cc1ccc(OCCC(=O)Nc2ccc3c(c2)OCO3)cc1	x	x	x	2.8	-8.4	i	x	-1.8	1.7	-2.7
CNS(=O)(=O)c1cnccc1N1CCN(C)CC1	-38.5	-16.8	4.4	-7.1	x	x	3.4	x	x	x
Cc1cccn2c(=O)c(/C=C(\C#N)C(=O)NC3CCS(=O)(=O)C3)c(N3CCC(C(N)=O)CC3)nc12 (stereo not drawn)	1.4	4.5	u	-2.6	-9.3	i	-15.0	7.3	9.2	2.5
COc1ccc(NS(=O)(=O)c2cccc(C(=O)N/N=C/c3ccc(O)cc3)c2)cc1	-13.1	-1.0	-7.4	-5.9	0.6	i	-13.0	0.3	7.4	-1.5
COC(=O)c1ccc(CSc2nnnn2-c2ccc(C)cc2C)o1	4.0	8.4	2.4	-2.3	-22.7	x	4.2	-16.8	-6.2	-0.5
O=C(NCCn1cc(SCc2ccccc2F)c2ccccc21)c1c(F)cccc1F	18.6	2.5	-2.2	17.0	5.5	i	-17.2	-1.5	-11.1	-7.4
COc1ccc(/C=N/NC(=O)C(=O)NCc2cccnc2)cc1OC	-18.2	-1.5	0.6	-2.3	x	x	-4.1	x	x	x
COc1ccc(NC(=O)c2cccc(S(=O)(=O)N3CCCCCC3)c2)cc1	9.3	-4.9	-5.5	4.7	0.7	i	x	2.3	1.5	-0.8
COc1ccc(OC)c(C(c2nnnn2C2CCCC2)N2CCc3ccccc3C2)c1 (stereo not drawn)	46.3	8.3	2.5	11.9	x	x	-1.9	x	x	x
Cn1c(N)c(C(=O)c2ccc(Oc3ccccc3)cc2)c(=O)n(C)c1=O	-21.4	6.8	3.0	-2.3	0.5	i	-23.1	5.3	0.1	1.2
COc1cc(NC(=O)c2ccccc2Cl)ccc1NC(=O)c1cccs1	-2.6	5.7	-6.4	5.5	-2.2	x	-5.6	-2.7	-1.5	1.3
CCCn1c(SCC(=O)N2c3ccccc3Sc3ccccc32)nc2c1c(=O)n(C)c(=O)n2C	43.7	1.1	-3.2	7.2	x	x	-23.5	x	x	x
CCN(CC)C(=O)c1scc2c1OCCO2	2.9	2.5	4.7	1.8	x	x	-3.1	x	x	x
Cc1nc(NC(=O)C2CC2)sc1C(=O)N1CCCCC1	-8.9	-5.1	8.0	0.2	x	x	-3.7	x	x	x
Cc1oncc1C(=S)Nc1ccccc1	-19.5	-3.3	-1.3	-1.1	x	x	11.8	x	x	x
CCn1cc(C2=NOC(C(=O)Nc3cc(OC)c(Cl)cc3OC)C2)c(C)n1 (stereo not drawn)	-9.3	20.2	2.7	6.1	x	x	-5.2	x	x	x
Cc1ccc(S(=O)(=O)N2[C@@H](c3ccc(Cl)cc3)C(C(=O)O)=CC[C@H]2c2ccc3c(c2)OCO3)cc1	x	x	x	-3.7	-2.1	i	-2.0	-37.0	-49.0	-5.8
Cc1ccccc1NC(=O)c1ccc2c(c1)N(C)CCS2	17.7	-24.9	2.2	0.4	6.0	i	97.6*	-11.6	-20.7	-4.9
CC1=NN(c2ccc(C)cc2C)C(=O)C1C(c1cccc(O)c1)C1C(=O)N(c2ccc(C)cc2C)N=C1C (stereo not drawn)	-11.8	4.8	-3.2	-5.8	x	x	12.3	x	x	x
C[C@]12c3[nH]c4ccccc4c3CCN1C(=O)C(CC(=O)NCCC1=CCCCC1)C[C@@H]2C(=O)N1CCCCC1 (stereo partly drawn)	x	x	x	-2.8	-1.0	i	0.3	4.4	11.4	-0.1
COC(=O)C1=C(C)N(c2ccc(F)c(Cl)c2)C(=O)C1	-11.3	25.0	2.2	-7.0	x	x	26.4	x	x	x
CCOC(=O)N1CCN(C(=O)c2ccc(OC(C)=O)cc2)CC1	-6.2	-1.0	4.5	x	0.1	i	-1.0	14.6	9.3	-0.1
COc1ccc(C(=O)CC(CC(=O)c2ccc(OC)cc2)C(=O)O)cc1	-4.5	-4.3	u	2.9	-1.1	i	1.9	0.9	4.6	-0.6
O=C(Nc1cccc(Br)c1)c1ccc2snnc2c1	10.3	-6.2	-0.8	-1.5	-1.6	i	-3.6	6.5	16.0	-0.2
CCN1CCN(c2ccc(S(=O)(=O)N3CCCCC3)cc2NC(=O)COc2ccccc2)CC1	58.2*	-5.8	4.8	x	7.7	i	-3.1	-10.2	-3.8	4.9
C/C(=N\NC(=O)c1ccccc1O)c1cccs1	-0.1	-17.7	0.8	9.1	-1.2	i	42.0	3.9	10.5	-1.4
Cc1c(C)c2c(OCC(=O)N3CCC(C(N)=O)CC3)cc3c(c2oc1=O)CCC(C)(C)O3	0.0	-3.7	4.6	5.1	-9.6	i	1.9	x	x	x
CCOC(=O)c1c(C)[nH]c(C)c1C(=O)COC(=O)CNC(=O)C1CCCCC1	3.8	-7.4	1.5	-8.6	-0.7	i	-2.8	7.6	2.7	1.5
COc1ccccc1Nc1nccc(N(C)C)c1C#N	-9.5	-13.1	-3.8	1.5	-0.9	i	-2.7	19.0	7.4	-1.4
CC(C)(C)[C@H]1COC(=O)[C@H](NC(=O)OCC2c3ccccc3-c3ccccc32)C/C=C\C[C@@H](CC(=O)N[C@@H](CO)Cc2ccccc2)C(=O)N1	x	x	x	19.8	0.5	i	-0.4	8.7	22.6	10.6
COc1ccc2c(c1)CCc1c(C(=O)Nc3cc(C)n(Cc4ccc(Cl)cc4)n3)noc1-2	0.4	-13.6	2.6	62.6	x	x	-10.3	x	x	x
CCCCNC(=O)C1CCN(C/C(C)=C/c2ccccc2)CC1	0.6	-6.9	3.3	-0.4	x	x	-26.4	x	x	x
Cc1nc2scc(-c3ccc(C(C)C)cc3)c2c(=O)n1N	-17.1	7.0	-3.3	x	-2.4	i	4.3	-9.4	-7.6	3.4
O=C(NC(=S)Nc1ccccc1N1CCCCC1)c1cccs1	-9.9	u	-11.4	3.0	x	x	-5.6	x	x	x
CCCCn1c(N)c(N(Cc2ccccc2OC)C(=O)CN2C(=O)NC3(CCCC3)C2=O)c(=O)[nH]c1=O	-2.5	x	5.7	0.3	-2.3	i	-4.1	14.1	5.4	2.8
Cc1cc(C)c(NC(=O)Cn2c(=O)n(Cc3ccco3)c(=O)c3ccccc32)c(C)c1	6.3	4.5	-4.1	0.4	x	x	3.8	x	x	x
COc1ccc(C(C)=O)cc1Cn1nnc(-c2ccccc2Br)n1	2.8	0.2	1.2	-2.2	-0.3	i	-29.9	-3.3	-6.4	1.3
COc1cc(C(=O)N2c3ccccc3CC2C)cc(OC)c1OC (stereo not drawn)	-5.7	-2.6	-4.0	x	x	x	-4.4	x	x	x
COc1ccc(C(O)Cn2cc([N+](=O)[O-])nc2C)cc1 (stereo not drawn)	-11.1	8.3	-2.1	-6.6	-0.7	i	-15.6	x	x	x
O=C(Cn1ccc([N+](=O)[O-])n1)Nc1nc2ccccc2s1	-6.9	-0.9	0.9	-3.3	-10.7	i	-2.5	6.5	2.5	3.1
COc1ccccc1NC(=S)NC1CCCCC1	1.3	7.5	1.7	-4.3	x	x	-8.2	x	x	x
CN(C(=O)CSc1cn(CC(=O)N2CCOCC2)c2ccccc12)c1ccccc1	1.3	-0.9	-1.5	-1.8	1.3	i	u	8.2	9.7	1.6
O=C(COc1ccccc1Br)c1ccc2c(c1)OCO2	-17.0	-8.5	2.1	-1.3	-1.5	i	-0.7	-2.6	-14.8	-1.7
Fc1cc(F)cc(NC(=S)N2CCC(c3ccccc3)C2)c1 (stereo not drawn)	-11.0	-4.5	-7.6	0.8	-8.5	i	-0.6	-4.0	-3.0	-7.9

Only part of the results is shown; count on the stated rates, not on these rows.
